Screening results deposited in PubChem BioAssay by ICCB-Longwood Screening Facility, Harvard Medical School.
Sa helicase inh: S. aureus DNA helicase inhibition; purified S. aureus helicase, fluorescence unwinding assay; about half of the hits fall short of the stated cut; inhibition, %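 (tested at about 80 µM)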; hit rate 0.05% among 120,000;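 active = both duplicates at 50% or more, or one of them with a favoured structure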;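 note: 0% = mean of negative control wells and 100% = mean of positive control wells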
MgrA-DNA mod: S. aureus MgrA-DNA binding modulation. fluorescence polarization. inhibition, %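 (about 10 µg/mL by stock and volumes)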. hit rate 0.13% among 84,000. AID 602314;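 active = above 50% in either of two replicates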;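 note: 0% = protein plus DNA without compound and 100% = DNA alone without protein; higher means less MgrA bound to DNA so lower polarization; one replicate is shown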
The depositor's hits bear a star; / = no result given. This is a subset, so the mix of outcomes need not match the whole.

Sa helicase inh,MgrA-DNA mod,Molecule
7,-0.1,CCOC(=O)c1nc(-c2ccc(F)cc2)no1
/,-0.6,Cc1cc(SCc2cccc(F)c2)c(Cl)cc1Cl
-17,/,CCCc1cc2c(=O)c(-c3nc(C)cs3)coc2cc1OC(C)=O
-12,/,COc1ccc(CNC(=O)COC(=O)Cc2n[nH]c(=O)c3ccccc23)cc1
-25,/,CCCCCn1c(=O)[nH]c2cc(C(=O)N3CCN(c4cc(C)ccc4C)CC3)ccc2c1=O
8,-2.0,Cc1ccc(NC(=O)n2ccnc2)cc1NC(=O)n1ccnc1
30,/,C=C(C)COc1cc(O)c2c(=O)cc(-c3ccccc3)oc2c1
/,-1.5,COc1cc(/C=N/OC(=O)c2ccc(Cl)cc2)cc(OC)c1OC
9,-1.5,CN(C)C(=O)Cn1c(=O)oc2ccccc21
/,4.8,CCCCCCCCCCCCC/C=C/[C@@H](O)[C@H](CO)NC(=O)CCCCCCCCCCCCCCC
-8,/,O=C(OCCOc1ccccc1)c1ccccc1C(=O)N1CCN(c2ccc(F)cc2)CC1
3,0.8,Cc1ccc2c(c1)-c1c(ssc1=S)C(C)(C)N2C(=O)c1ccncc1
0,0.2,Clc1ccccc1C1N(Cc2ccccc2)CCN1Cc1ccccc1
14,-2.5,CCC(=O)N1CCN(C(=O)CC)C1c1ccccc1
7,/,Cc1cc(C)n2cc(CSC3=NCCS3)nc2n1
18,5.4,CC1(C)N=C2C(=N)C=CC=C2N1O
/,-2.5,CC(C)(C)c1n[nH]c(C(C)(C)C)c1Cc1c(F)cccc1Cl
6,/,C1=CC2CC1CC2CN1CCN(Cc2cccnc2)CC1 (configuration not stated)
-27,/,O=C(CCc1c[nH]c2ccccc12)N(Cc1cccnc1)c1ccc2c(c1)OCO2
8,/,O/N=C1\CCc2ccccc2\C1=N/O
-3,1.1,N#Cc1nc(-c2ccccc2)oc1NCCCn1ccnc1
/,-1.3,Cc1cc(Oc2ccc(NS(=O)(=O)c3cccc4cccnc34)cn2)cc(C)c1Cl
-4,0.0,Cc1cc(=O)[nH]c(SC(C)C(=O)Nc2ccccc2)n1 (configuration not stated)
13,/,COc1ccc(NC(=O)C2CCOC(C)(C)C2)cc1 (configuration not stated)
-13,/,NC1=NC(=O)C(CC(=O)Nc2cccc(C(=O)Nc3ccc4c(c3)OCCO4)c2)S1 (configuration not stated)
/,11,Cc1c(C#N)c2nc3ccccc3n2c(=O)/c1=C/NN1C(=O)CNC1=S
/,0.9,O=C(CC(CC(=O)c1cccs1)c1ccccc1)c1ccccc1 (configuration not stated)
/,-8.3,COc1cccc(C2NC(=O)NC(C)=C2C(=O)OCCOc2ccccc2)c1OC (configuration not stated)
-2,-1.4,COc1cc(Cl)c(C)cc1NC(=O)CSC
-120,/,N#C/C=C1\SCC(=O)N1CC(=O)c1ccc(Br)cc1
4,0.3,Cc1ccc(NC(=O)CSc2nnc(C)n3c2cc2sccc23)cc1F
14,1.2,CN(C)C12CC3CC(CC(C(=O)O)(C3)C1)C2
11,4.7,O=C(/C=N/O)NCc1ccccn1
10,/,O=c1cc(CO)oc2c1OCN(C1CCS(=O)(=O)C1)C2 (configuration not stated)
-1,/,CCOc1ccccc1N1CC(C(=O)NC2CCCCCC2)CC1=O (configuration not stated)
-50,/,CC(/C=C1\SC(=S)N(CC(=O)Nc2cccnc2)C1=O)=C\c1ccccc1
-2,/,COC(=O)c1cc(-c2c(C)oc3cc(O)ccc3c2=O)c(C)o1
-11,0.9,CCN1C(=O)/C(=C2/C=Cc3ccccc3N2CC)N(C)C1=S
8,3.0,O=C(NCc1ccccc1)c1ncn[nH]1
20,15,O=c1cc(CSc2nnnn2-c2ccccc2)[nH]c(=S)[nH]1
/,0.5,CCOC(=O)c1c(C=O)oc2c(C)cc(OC(=O)c3ccc(Cl)cc3Cl)c(Br)c12
8,/,Cc1cc(C)n(CCCNC(=O)CSc2ncnc3scc(-c4ccccc4)c23)n1
/,-0.5,Cc1ccc2oc3ncc(C(=O)NC(C)(C)C)cc3c(=O)c2c1
9,0.1,O=C(CSc1ncc(-c2ccccc2)[nH]1)c1ccc(-c2ccccc2)cc1
-10,1.6,O=C(CCSc1nc(-c2ccco2)cc(C(F)(F)F)n1)N1CCCC1
-3,-1.9,c1ccc(-c2cc3c(ncn4cnnc34)s2)cc1
23,/,CCn1cc(C(=O)O)c(=O)c2cc(F)c(N(C)CCc3ccc(OC)c(OC)c3)cc21
15,/,O=c1c(-c2ccccc2F)coc2cc(O)cc(O)c12
6,-0.9,COc1ccc(CNC(=O)C2c3ccccc3C(=O)N(C)C2c2cccs2)cc1 (configuration not stated)
/,-0.6,CC(=O)Nc1ccc2nc(NC(=O)c3ccc(S(=O)(=O)N4CCCCC4)cc3)sc2c1
-1,0.3,CCNc1nc(NCC)nc(NCCO)n1
-12,15,C1=C(c2cccs2)OC(c2cccs2)=CC1c1cccs1
7,0.7,COc1ccccc1Cn1c(=S)[nH]c2cc(C(=O)NCC(OC)OC)ccc2c1=O
3,/,O=C1CCCC2=C1C(c1ccc(Cl)cc1)c1c([nH]c(=O)[nH]c1=O)N2 (configuration not stated)
1,/,COc1ccc(C(=O)NC(=O)CSc2nc3cc(S(=O)(=O)N4CCCCC4)ccc3o2)cc1
32,-3.3,Cn1c2nc3ccccc3nc2c2c(=O)n(Cc3ccccc3)cnc21
10,/,CC(=O)N(CC1CCCO1)C1(C(=O)NC2CCCC2)CCCCC1 (configuration not stated)
-5,/,N#C/C(=C\C=N\Nc1ccccc1)c1nn(-c2ccccc2)c(-n2cccc2)c1C#N
/,-1.8,COc1ccc(/C=N/O)cc1Cl
/,0.4,N#CC(C#N)C(CC(=O)c1ccccc1)c1ccccc1 (configuration not stated)

7 structures already listed, arranged by SMILES length, ascending.
Sa helicase inh,MgrA-DNA mod,Molecule
9,-1.5,CN(C)C(=O)Cn1c(=O)oc2ccccc21
-3,-1.9,c1ccc(-c2cc3c(ncn4cnnc34)s2)cc1
-4,0.0,Cc1cc(=O)[nH]c(SC(C)C(=O)Nc2ccccc2)n1 (configuration not stated)
32,-3.3,Cn1c2nc3ccccc3nc2c2c(=O)n(Cc3ccccc3)cnc21
9,0.1,O=C(CSc1ncc(-c2ccccc2)[nH]1)c1ccc(-c2ccccc2)cc1
/,0.5,CCOC(=O)c1c(C=O)oc2c(C)cc(OC(=O)c3ccc(Cl)cc3Cl)c(Br)c12
/,4.8,CCCCCCCCCCCCC/C=C/[C@@H](O)[C@H](CO)NC(=O)CCCCCCCCCCCCCCC

(list continues)
Sa helicase inh,MgrA-DNA mod,Molecule
-6,/,Cc1ccc(SCCN2C(=O)NC3(CCCC3)C2=O)cc1
1,/,CCCn1c(C)cc(/C=C(\C#N)C(=O)Nc2ccccc2)c1C
13,-3.0,CC(CC1OCC(CN2CCCCC2)O1)CC(C)(C)C (configuration not stated)
19,/,CCCCC(=O)N(c1ccc(C)c(C)c1)C1C=CS(=O)(=O)C1 (configuration not stated)
-16,/,O=C(CCCc1c[nH]c2ccccc12)NCCN1CCOCC1
-3,0.2,COC(CNC(=O)c1c[nH]c2ccc(S(=O)(=O)N(C)c3ccc(C(C)C)cc3)cc2c1=O)OC
3,/,O=C(CSc1n[nH]c(-c2ccccc2F)n1)NN1C(=O)NC2(CCCCC2)C1=O
20,/,Cc1cc(C)n2nc(SC/C(N)=N/O)nc2n1
9,/,CNC(=O)COC(=O)c1cccs1
/,-2.7,Cc1nc(NC(=O)c2cnccn2)ccc1Br
3,0.7,CC1(C)CC(=O)C2=C(C1)N1C(=C(C#N)C2c2cccnc2)N=C(N)c2ccccc21 (configuration not stated)
4,/,CC(=O)Nc1ccc(Oc2cc(C#N)c(C#N)cc2N2CCCCCC2)cc1

The list goes on, starting with the last six of the part before.
Sa helicase inh,MgrA-DNA mod,Molecule
3,/,O=C(CSc1n[nH]c(-c2ccccc2F)n1)NN1C(=O)NC2(CCCCC2)C1=O
20,/,Cc1cc(C)n2nc(SC/C(N)=N/O)nc2n1
9,/,CNC(=O)COC(=O)c1cccs1
/,-2.7,Cc1nc(NC(=O)c2cnccn2)ccc1Br
3,0.7,CC1(C)CC(=O)C2=C(C1)N1C(=C(C#N)C2c2cccnc2)N=C(N)c2ccccc21 (configuration not stated)
4,/,CC(=O)Nc1ccc(Oc2cc(C#N)c(C#N)cc2N2CCCCCC2)cc1
10,-1.1,O=C1OC2(c3ccc(Br)cc3)C(OC(=O)C23CCCC3)C12CCCC2 (configuration not stated)
-8,-1.3,N#Cc1ccccc1NC(=O)COC(=O)C12CC3CC(CC(C3)C1)C2
-12,3.5,COc1ccc(C(=O)O)cc1NCc1ccncc1
/,-1.4,CCOC(=O)C1=C(C)N=c2s/c(=C\c3ccc(OC(C)=O)c(OC)c3)c(=O)n2C1c1ccc(OC)cc1 (configuration not stated)
-4,-0.8,Cc1cccc(N(CC(=O)N2CCCC2)S(C)(=O)=O)c1
8,/,CN1CCC(OC(=O)c2cc3ccccc3oc2=O)CC1
-6,/,O=C(Cn1c(=O)sc2ccccc21)NCc1ccccc1
6,-5.9,Cc1nccn1CC(C)C(=O)O (configuration not stated)
-23,/,CCN(c1ccc(OC)cc1)S(=O)(=O)c1ccc2c(c1)CCN2C(=O)CCC(=O)O
-2,0.3,CCN(C(=O)COc1ccc(OC)cc1)C1CCCCC1
18,/,O=C1CN(C(=O)C2CC2)CCN1
-14,/,C=CCn1c(CCNC(=O)Cc2ccccc2)nc2ccccc21
/,1.6,Cc1occc(=O)c1Oc1ncc(C(F)(F)F)cc1Cl
0,0.6,COc1ccccc1NC(=O)Cc1csc(N)n1
6,5.8,CCN(CC)C(=O)c1cc2ccccc2cc1O
3,/,CCC1CC(C)(C(=O)Nc2ccc(S(N)(=O)=O)cc2)OC1=O (configuration not stated)
5,/,S=c1n(CN2CCOCC2)nc(-c2cccs2)n1CC1CCCO1 (configuration not stated)
/,-0.3,Oc1ccc(CCc2n[nH]c(=S)n2-c2cccc(C(F)(F)F)c2)cc1
6,/,CN(C(=O)COC(=O)c1ccc(Br)c(S(=O)(=O)N2CCOCC2)c1)c1ccccc1
/,-4.0,Cc1onc(-c2ccccc2)c1CNC(=O)c1cc(F)cc2c1OCOC2
-21,/,Cc1cc(C)c(C(=O)NCCCN2CCOCC2)c(C)c1
/,0.4,CC(C)(C)c1ccc(-c2nnc(-c3ccc(C(C)(C)C)cc3)o2)cc1
-1,/,Cc1n[nH]c(=O)nc1NCc1ccccc1
9,/,CCN1C(=O)CC(c2ccccc2)S(=O)(=O)c2ccccc21 (configuration not stated)
3,0.3,Cc1ccc(C(=O)Nc2nc3c(s2)CCCC3)cc1
-16,/,O=C1CCC/C(=N/NC(=O)c2ccc(Cn3nnc(-c4ccccc4)n3)cc2)C1
-14,/,CCOC(=O)c1sc(N)c(C#N)c1COC(=O)c1c(CC)noc1C
-1,-0.7,S=C1CCN(Cc2ccccc2)c2ccccc2N1
-6,/,CN(CC(=O)Nc1ccc(F)cc1)C(=O)Cc1coc2cc3c(cc12)CCC3
-7,/,COc1ccc(CCNC(=O)c2onc(C)c2Cl)cc1OC
/,-0.2,N#Cc1cnn(C(=O)c2cccs2)c1C1CC1
-27,/,O=C1CC(c2nc3ccccc3n2CCc2ccccc2)CN1Cc1ccccc1 (configuration not stated)
23,/,Cc1cc(/C=N/N2C(=O)c3ccccc3C2=O)cc(C)c1O
/,-0.9,N#CNC(=Nc1ccccc1C(F)(F)F)N1CCCC1
-2,0.1,CN(C)CCN(C)C1Cc2ccccc2C1
-173,/,O=CN/N=C/c1ccc(N2CCOCC2)s1

Structures from the list above containing a CF3 group (four):
Sa helicase inh,MgrA-DNA mod,Molecule
-10,1.6,O=C(CCSc1nc(-c2ccco2)cc(C(F)(F)F)n1)N1CCCC1
/,1.6,Cc1occc(=O)c1Oc1ncc(C(F)(F)F)cc1Cl
/,-0.3,Oc1ccc(CCc2n[nH]c(=S)n2-c2cccc(C(F)(F)F)c2)cc1
/,-0.9,N#CNC(=Nc1ccccc1C(F)(F)F)N1CCCC1

The results go on:
Sa helicase inh,MgrA-DNA mod,Molecule
/,-2.2,CC(=O)CN1C(=O)c2ccccc2S1(=O)=O
/,2.0,CC/C=C\C/C=C\C/C=C\CCCCCCCCCCCC(=O)O
13,/,COCC(=O)Nc1c(C(=O)Nc2cccc(OC)c2)oc2ccccc12
/,0.4,Oc1ccc(-n2nnnc2SCc2cc(F)cc(F)c2)cc1
13,-1.9,CC(C)Cc1nn(-c2ccccc2)cc1/C=C1\CCC(C2CCCC2)C1=O (configuration not stated)
/,7.6,COC(=O)c1ccc(N2C(=O)CSC2c2ccc(Br)cc2)cc1 (configuration not stated)
7,-2.4,COC(=O)c1cc(=O)n(CCc2ccccc2)c(=NCCc2ccccc2)s1
0,/,CN=c1scc(-c2[nH]c(C)c(C(=O)OC)c2C)n1C
-13,/,Cc1cc(=O)n2c(n1)OC(CO)C2 (configuration not stated)
2,1.9,CCOC(=O)c1cccc(C(=O)NC2=CC(=O)CC(C)(C)C2)c1
-32,3.0,Cc1ccc(N=Cc2cc3ccccc3nc2Cl)cc1Cl
5,/,COc1ccccc1NC(=O)CCCc1ccccc1
4,4.7,Cc1ccc(NC(=O)CC23CC4CC(CC(C4)C2)C3)cc1
-6,/,Cn1ccsc1=NC(=O)CCN1C(=O)c2ccccc2C1=O
12,/,CC(C)(C)C1=NNC2=C(c3nc(-c4ccc(Cl)cc4)cs3)C(N)=NC2C1=O (configuration not stated)
9,/,CCN(Cc1ccc2c(c1)OCO2)C(=O)c1oc2c(F)cccc2c1C
7,1.0,O=C(NCSC1=NCCS1)c1ccccc1
/,-1.8,O=C(CSc1nc2ccccc2s1)OCC(=O)N1c2ccccc2Sc2ccccc21
1,/,O=C1NC(=O)C(C2SC(=O)NC2=O)S1 (configuration not stated)
8,0.8,O=[S@@]1c2ccccc2Nc2cc(C(F)(F)F)ccc21
